Bioassay records (PubChem BioAssay)
RanGTP-Impb inh – inhibitors of RanGTP-importin-beta interaction, primary screen, biochemical, FRET, CFP-Ran, YFP-importin-beta, homogeneous | cell-free CFP-Ran/YFP-importin-beta FRET ratio | inhibition, % (concentration not given with the values) | hit rate 1.1% among 300,000;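 active means most replicates above 15%; inconclusive means exactly half above 15%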;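 further: 0% = DMSO wells and 100% = Ran loaded with GDP instead of GTP; wells of about 40 µL received 100 nL stock; the first replicate is given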
T cruzi inh – blocks replication of Trypanosoma cruzi; AID 1885; inhibition, % (no concentration beside the values); hit rate 1.4% among 300,000; T. cruzi beta-gal in NIH3T3, luminescence, 90 h;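 active means mean inhibition across valid replicates above about 55%, limit read from the data; inconclusive means mean below that limit but half or more replicates reach it; inactive means mean below it, under half of replicates reach it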;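 further: signal also drops with host cell toxicity which is not excluded here; 0% = plate median of DMSO wells and 100% = zero luminescence signal; higher percent means less beta-gal luminescence so fewer parasites; stock transfer was 50 nL into about 50 µL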
Calb FLC – C. albicans growth modulation with fluconazole. C. albicans CaCi-2 (fluconazole-resistant clinical isolate) + fluconazole, Alamar Blue growth, 48 h. growth inhibition, % (no concentration beside the values). hit rate 0.57% among 300,000;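 active means most replicates above 75%; inconclusive means exactly half above 75%; inactive means most below 75%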;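 further: all wells also contain fluconazole at 8 µg/ml as a sub-toxic cotreatment; 0% = median of DMSO wells and 100% = median of geldanamycin control wells; wells of about 8 µL received 7.5 nL stock; the first replicate is given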
Beta cell apopt – blocks beta cell apoptosis; INS-1E cytokine-induced death, ATP luminescence, 48 h; percent of positive-control rescue, neutral wells zero; protection from apoptosis, % (concentration not given with the values); hit rate 0.8% among 300,000; AID 435005;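 active means all replicates at 75% or more, or half of them and the mean; inconclusive means half reach 75% but not the mean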;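 further: 0% = cytokine-treated negative control wells and 100% = positive control rescue; higher means more ATP so stronger rescue from cytokine killing; wells of about 40 µL received 100 nL stock; the first replicate is given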
rRNA inh HTS – inhibitors of bacterial rRNA selective over humanized ribosomes. AID 720706. hit rate 1.6% among 350,000. E. coli WT GFP vs humanized-ribosome RFP mutants, fluorescence, 24 h; active compounds read low; DMSO median 0, no signal -100. GFP signal change (wild-type ribosome), % (no concentration beside the values);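 active means significant combined selectivity score with lowered wild-type GFP, culture density cut under 30%, mutant RFP and density less affected; inactive means any of these conditions unmet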; further: one replicate is shown; some compounds called inactive have numbers as strong as hits
MLL AF4-AF9 inh – blocks AF4 peptide binding to human AF9. hit rate 0.47% among 350,000. AlphaScreen, biotin-AF4 peptide binding to FLAG-AF9. P42568. inhibition, % at 10 µM;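 active means every replicate reaching a set inhibition limit, whatever the replicate mean, cut at about 25% in these data; inconclusive means mean inhibition reaches that limit but some replicates miss it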;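 further: 0% = plate neutral control median and 100% = total signal loss; the record names both 10 and 1 µM as test concentration; the first replicate is given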
Target sequence (P42568 whole entry, looked up): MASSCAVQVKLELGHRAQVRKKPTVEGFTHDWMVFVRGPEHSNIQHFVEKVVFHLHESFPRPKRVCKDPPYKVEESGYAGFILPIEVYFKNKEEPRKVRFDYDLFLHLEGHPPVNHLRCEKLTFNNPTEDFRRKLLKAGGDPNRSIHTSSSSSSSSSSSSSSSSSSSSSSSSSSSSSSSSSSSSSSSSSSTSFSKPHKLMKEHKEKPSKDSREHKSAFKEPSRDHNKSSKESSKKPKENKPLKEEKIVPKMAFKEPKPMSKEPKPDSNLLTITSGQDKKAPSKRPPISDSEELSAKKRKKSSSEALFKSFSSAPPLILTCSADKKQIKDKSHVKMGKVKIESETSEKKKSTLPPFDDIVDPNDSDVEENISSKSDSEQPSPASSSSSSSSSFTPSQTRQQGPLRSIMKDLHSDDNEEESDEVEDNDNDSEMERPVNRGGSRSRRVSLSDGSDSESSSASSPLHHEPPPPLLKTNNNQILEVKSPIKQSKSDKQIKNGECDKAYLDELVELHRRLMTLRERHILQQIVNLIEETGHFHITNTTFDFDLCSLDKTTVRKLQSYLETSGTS
Vif A3G – HIV-1 Vif–A3G interaction blockers – biochemical, TR-FRET, GST-Vif 1-94, biotin-A3G peptide, dose response retest, primary screen (AID 1117319); TR-FRET GST-Vif / biotin-A3G peptide binding; higher % means a stronger effect; test concentration not given here; strong numbers were not always called active; inhibition, %, or IC50 in µM where a hit was titrated; hit rate 0.57% among 260,000;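 active means above the screen mean plus three standard deviations and confirmed in dose response; inconclusive means results disagree or hit not tested in dose response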;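 further: Vif residues 1-94 fused to GST binding biotinylated APOBEC3G peptide 110-148; 0% = full assay without inhibitor and 100% = GST in place of GST-Vif; retest series ran down from 100 µM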
Bfl-1 A1 inh – inhibitors of the anti-apoptotic protein A1, read as caspase activation; MEF A1-2A-BIM cells, Caspase-Glo 3/7 luminescence, 3 h; percent of clofoctol response, vehicle zero; caspase activation, % (no concentration beside the values); hit rate 0.066% among 330,000; AID 2462;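 active means over half of replicate activation scores above 10%, or exactly half above 10 with the replicate mean above 10; inconclusive means replicate mean below 10 yet half the replicates above 10; inactive means over half of replicates below 10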;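 further: wells of about 30 µL received 50 nL stock; many hits fall short of the cut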
rRNA inh HTS OD600 – recorded beside rRNA inh HTS, whose call it bears; OD600 change, %; measured here: OD600 growth;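 optical density of the mix in the first replicate; 0 = DMSO median and -100 = no signal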
rRNA inh HTS RFP – further read-out of rRNA inh HTS, marked with its call; RFP signal change, %; measured here: RFP humanized mutant strains;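 first replicate; 0 = DMSO median and -100 = no signal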
* marks the source's active call; other numbers are inactive results.

What do the screens show for `CC(=O)O[C@H]1C(=O)[C@@]2(C)C([C@H](OC(=O)c3ccccc3)[C@]3(O)C[C@H](OC(=O)[C@H](O)[C@@H](NC(=O)Cc4ccccc4)c4ccccc4)C(C)=C1C3(C)C)[C@]1(OC(C)=O)CO[C@@H]1C[C@@H]2O` (stereo partly drawn)?
RanGTP-Impb inh: -0.9; T cruzi inh: 41; Calb FLC: 9; Beta cell apopt: 5; rRNA inh HTS: 7; MLL AF4-AF9 inh: 0.4; Bfl-1 A1 inh: 1.6; rRNA inh HTS OD600: 14; rRNA inh HTS RFP: 6.0

What do the screens show for `CCN(CC)CCCOC(=O)C(OC)(c1ccccc1)c1ccccc1`?
RanGTP-Impb inh: 1.5; T cruzi inh: 11; Calb FLC: -18; Beta cell apopt: -22; rRNA inh HTS: 0; MLL AF4-AF9 inh: 4.7; Vif A3G: -2%; Bfl-1 A1 inh: 0.7; rRNA inh HTS OD600: 7; rRNA inh HTS RFP: 0.3

What do the screens show for `CCC(=NCc1ccco1)c1c(O)n(-c2ccc(Cl)cc2)c(=O)[nH]c1=O`?
RanGTP-Impb inh: 4.5; Calb FLC: 39; Beta cell apopt: -5; rRNA inh HTS: 22; MLL AF4-AF9 inh: -0.5; Vif A3G: -4%; Bfl-1 A1 inh: -0.1; rRNA inh HTS OD600: 11; rRNA inh HTS RFP: 13

What do the screens show for `CCN(CC)C(=O)c1ccc(NC(=O)c2ccc(-n3cncn3)c([N+](=O)[O-])c2)cc1`?
RanGTP-Impb inh: 1.0; T cruzi inh: -2; Calb FLC: 31; Beta cell apopt: -1; rRNA inh HTS: 18; MLL AF4-AF9 inh: -10; Vif A3G: 5%; Bfl-1 A1 inh: 0.6; rRNA inh HTS OD600: 12; rRNA inh HTS RFP: -1.9

What do the screens show for `Cn1c2ccccc2c2cnn(CC(=O)N3CCC4(CC3)OCCO4)c(=O)c21`?
RanGTP-Impb inh: -1.2; T cruzi inh: -10; Calb FLC: -7; Beta cell apopt: -1; Vif A3G: -1%; Bfl-1 A1 inh: 1.2

How did C(#CCN1CCOCC1)COCc1ccccc1 do in these assays?
RanGTP-Impb inh: 1.0; T cruzi inh: 8; Calb FLC: -2; Beta cell apopt: -2; Vif A3G: 7%; Bfl-1 A1 inh: 0.2

What do the screens show for `O=c1[nH]c(CN2CCNCC2)nc2ccccc12`?
RanGTP-Impb inh: 4.3; T cruzi inh: 8; Calb FLC: 10; Beta cell apopt: 5; Vif A3G: 1%; Bfl-1 A1 inh: 2.8

How did COC(=O)C1=C(c2ccc(S(C)(=O)=O)cc2)C[C@@H]2CC[C@H]1N2C(=O)NCc1cccc2ccccc12 do in these assays?
RanGTP-Impb inh: 1.7; T cruzi inh: -9; Calb FLC: 27; Beta cell apopt: -7; rRNA inh HTS: -2; MLL AF4-AF9 inh: -0.7; Bfl-1 A1 inh: 0.9; rRNA inh HTS OD600: -5; rRNA inh HTS RFP: 3.0

Results for CN1CCN(c2nc3c(c(=O)[nH]2)CCC3)CC1 ?
RanGTP-Impb inh: 2.6; T cruzi inh: -8; Calb FLC: -8; Beta cell apopt: -1; rRNA inh HTS: 10; MLL AF4-AF9 inh: -4.5; Bfl-1 A1 inh: -0.7; rRNA inh HTS OD600: 12; rRNA inh HTS RFP: 0.4

Results for CN(C)CC1Oc2ccccc2OC1(O)c1ccccc1 (stereo not drawn) ?
RanGTP-Impb inh: -0.1; T cruzi inh: -29; Calb FLC: -5; rRNA inh HTS: -41*; MLL AF4-AF9 inh: -5.0; Vif A3G: -3%; rRNA inh HTS OD600: -12*; rRNA inh HTS RFP: -12*

What do the screens show for `CC(=O)OC(C)(C)/C=C/C(=O)C(C)(O)C1[C@H](O)C[C@@]2(C)C3CC=C4C(CC[C@@H](O)C4(C)C)[C@]3(CO)C(=O)C[C@]12C` (stereo partly drawn)?
RanGTP-Impb inh: -1.0; T cruzi inh: 56*; Calb FLC: 3; rRNA inh HTS: 13; MLL AF4-AF9 inh: -5.1; Vif A3G: 4%; Bfl-1 A1 inh: 11*; rRNA inh HTS OD600: 14; rRNA inh HTS RFP: 3.1

How did O=C1NC(=S)N(c2ccc(Cl)cc2)C(=O)/C1=C/N1CCN(C(=O)c2ccco2)CC1 do in these assays?
RanGTP-Impb inh: 0.1; T cruzi inh: -5; Calb FLC: 1; Beta cell apopt: 4; Vif A3G: 24%; Bfl-1 A1 inh: -0.4

Results for O=C1C2CCCN2C(c2cccc(Cl)c2)N1c1ccccn1 (stereo not drawn) ?
RanGTP-Impb inh: -2.0; T cruzi inh: -4; Calb FLC: 3; Beta cell apopt: -8; Vif A3G: 2%; Bfl-1 A1 inh: 0.3

Results for CC(=O)OC1C2CCC1C(N1CCCC1)CC2 (stereo not drawn) ?
RanGTP-Impb inh: -0.2; T cruzi inh: -7; Calb FLC: -5; MLL AF4-AF9 inh: -4.4; Vif A3G: 8%; Bfl-1 A1 inh: -1.0

Results for O=C(Cn1ncc2ccsc2c1=O)N1CCC2(CC1)OCCO2 ?
RanGTP-Impb inh: 0.5; T cruzi inh: -16; Calb FLC: -14; Beta cell apopt: -4; rRNA inh HTS: 11; MLL AF4-AF9 inh: 10; Vif A3G: 3%; Bfl-1 A1 inh: -0.2; rRNA inh HTS OD600: -2; rRNA inh HTS RFP: -7.9

How did CCNc1cc(N2CCNCC2)ccc1[N+](=O)[O-] do in these assays?
RanGTP-Impb inh: -1.5; T cruzi inh: 14; Calb FLC: -12; Beta cell apopt: 10; Bfl-1 A1 inh: 0.5

What do the screens show for `Fc1ccc(C2=CCN(C(c3cccs3)c3nnnn3CCc3ccccc3)CC2)cc1` (stereo not drawn)?
RanGTP-Impb inh: 3.3; T cruzi inh: 46; Calb FLC: -8; Beta cell apopt: 10; Vif A3G: -3%; Bfl-1 A1 inh: 1.0

What do the screens show for `O=C(Nc1ccccc1)N1CCC2(CC1)OCCO2`?
RanGTP-Impb inh: -3.7; T cruzi inh: -5; Calb FLC: 23; Beta cell apopt: -4; rRNA inh HTS: 8; MLL AF4-AF9 inh: 1.8; Bfl-1 A1 inh: 1.0; rRNA inh HTS OD600: 1; rRNA inh HTS RFP: -0.4

What do the screens show for `COCCCN1Cc2ccccc2C1=N`?
RanGTP-Impb inh: inconclusive; T cruzi inh: 14; Calb FLC: 1; Beta cell apopt: -1; Vif A3G: inconclusive; Bfl-1 A1 inh: 0.3

What do the screens show for `CCC(=NCc1cc(OC)cc(OC)c1)c1c(O)[nH]c(=O)[nH]c1=O`?
RanGTP-Impb inh: 1.8; T cruzi inh: -4; Calb FLC: 0; Beta cell apopt: 6; rRNA inh HTS: 3; MLL AF4-AF9 inh: -1.3; Vif A3G: -1%; Bfl-1 A1 inh: -0.9; rRNA inh HTS OD600: 2; rRNA inh HTS RFP: -1.7

What do the screens show for `CCn1c(O)c(/C=N/NC(=O)c2ccccc2)c(=O)n(CC)c1=S`?
RanGTP-Impb inh: 11; T cruzi inh: -4; Calb FLC: -14; Beta cell apopt: -8; rRNA inh HTS: -1; MLL AF4-AF9 inh: -0.6; Bfl-1 A1 inh: 0.3; rRNA inh HTS OD600: -7; rRNA inh HTS RFP: 0.9

How did CCOC(=O)C(O)(c1ccc(N=c2ccccn2C)cc1)C(F)(F)F (stereo not drawn) do in these assays?
RanGTP-Impb inh: -1.5; T cruzi inh: 24; Calb FLC: -3; Beta cell apopt: -5; rRNA inh HTS: 20; MLL AF4-AF9 inh: -2.1; Vif A3G: inconclusive; Bfl-1 A1 inh: 0.0; rRNA inh HTS OD600: 8; rRNA inh HTS RFP: 1.6

Results for Cn1c(O)c(/C=C2\C=Nc3ccc(Br)cc32)c(=O)n(C)c1=O ?
RanGTP-Impb inh: 0.8; T cruzi inh: 1; Calb FLC: -3; Beta cell apopt: -6; rRNA inh HTS: 10; MLL AF4-AF9 inh: 3.3; Vif A3G: -8%; Bfl-1 A1 inh: -0.2; rRNA inh HTS OD600: 4; rRNA inh HTS RFP: -1.9

Results for CN(C)c1ccc(C=C(C#N)C#N)cc1 ?
RanGTP-Impb inh: inconclusive; T cruzi inh: -21; Calb FLC: 2; Beta cell apopt: 3; Vif A3G: 0%; Bfl-1 A1 inh: 0.1

How did Cc1nn(Cc2ccccc2)c(C)c1C=C1C(=O)NC(=S)NC1=O do in these assays?
RanGTP-Impb inh: -1.3; T cruzi inh: -2; Calb FLC: -8; Beta cell apopt: -4; rRNA inh HTS: 7; MLL AF4-AF9 inh: -3.5; Bfl-1 A1 inh: -0.6; rRNA inh HTS OD600: 7; rRNA inh HTS RFP: 7.4

What do the screens show for `Cc1cccc(-n2c(=S)[nH]c3ccccc3c2=O)n1`?
RanGTP-Impb inh: -4.8; T cruzi inh: -11; Calb FLC: -10; Beta cell apopt: 0; rRNA inh HTS: 17; MLL AF4-AF9 inh: -2.5; Vif A3G: -4%; Bfl-1 A1 inh: 0.7; rRNA inh HTS OD600: -2; rRNA inh HTS RFP: -1.3

Results for Cc1nn(Cc2ccccc2)c(C)c1C(=O)OCC(=O)NCc1ccco1 ?
RanGTP-Impb inh: 2.5; T cruzi inh: 4; Calb FLC: -24; Beta cell apopt: 3; Vif A3G: 0%; Bfl-1 A1 inh: 1.0

How did C=CCn1c(O)c(C(C)=NC2CC2)c(=O)[nH]c1=O do in these assays?
RanGTP-Impb inh: -2.8; T cruzi inh: 11; Beta cell apopt: 8; Vif A3G: 13%; Bfl-1 A1 inh: 0.1

How did O=c1[nH]c(O)c(C=Nc2ccccc2Sc2ccccc2)c(=O)[nH]1 do in these assays?
RanGTP-Impb inh: 1.8; T cruzi inh: -1; Calb FLC: -1; Beta cell apopt: -3; rRNA inh HTS: 1; MLL AF4-AF9 inh: -2.2; Vif A3G: -14%; Bfl-1 A1 inh: 0.5; rRNA inh HTS OD600: 8; rRNA inh HTS RFP: 2.1

How did CN(C)C(=O)Oc1ccc2c(c1)O/C(=C\c1ccc(Cl)cc1)C2=O do in these assays?
RanGTP-Impb inh: -1.2; T cruzi inh: 2; Calb FLC: -10; Beta cell apopt: -7; rRNA inh HTS: 2; MLL AF4-AF9 inh: 4.0; Vif A3G: 4%; Bfl-1 A1 inh: -7.1; rRNA inh HTS OD600: 8; rRNA inh HTS RFP: -1.0

How did CN1CC(C(=O)c2cccs2)C(c2ccc(Cl)cc2)C1 (stereo not drawn) do in these assays?
RanGTP-Impb inh: -3.7; T cruzi inh: -7; Calb FLC: -15; Beta cell apopt: 0; rRNA inh HTS: 1; MLL AF4-AF9 inh: 9.1; Vif A3G: -12%; Bfl-1 A1 inh: 0.3; rRNA inh HTS OD600: 3; rRNA inh HTS RFP: -1.0

How did CCCCc1nc2ccccc2c(=O)n1-c1ccc(Cl)cc1[N+](=O)[O-] do in these assays?
RanGTP-Impb inh: 0.9; T cruzi inh: 1; Calb FLC: -10; Beta cell apopt: -6; Vif A3G: 0%; Bfl-1 A1 inh: 0.6

Some of the compounds tested; the hit share may differ from the screen's.
